# D2 potentiator – human D2 receptor positive allosteric modulation; 0.23% of 360,000 active; potentiation, % (test concentration not listed); P14416; DiscoveRx D2 beta-arrestin cells, luminescence, 90 min; 100% = 57 uM dopamine signal; active = potentiation of 50% or more; inconclusive = 30% to 50%; inactive = 30% or less;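 note: compound concentration not given in the record; tested on top of an EC20 dose of dopamine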
# Target sequence (P14416 whole entry, looked up): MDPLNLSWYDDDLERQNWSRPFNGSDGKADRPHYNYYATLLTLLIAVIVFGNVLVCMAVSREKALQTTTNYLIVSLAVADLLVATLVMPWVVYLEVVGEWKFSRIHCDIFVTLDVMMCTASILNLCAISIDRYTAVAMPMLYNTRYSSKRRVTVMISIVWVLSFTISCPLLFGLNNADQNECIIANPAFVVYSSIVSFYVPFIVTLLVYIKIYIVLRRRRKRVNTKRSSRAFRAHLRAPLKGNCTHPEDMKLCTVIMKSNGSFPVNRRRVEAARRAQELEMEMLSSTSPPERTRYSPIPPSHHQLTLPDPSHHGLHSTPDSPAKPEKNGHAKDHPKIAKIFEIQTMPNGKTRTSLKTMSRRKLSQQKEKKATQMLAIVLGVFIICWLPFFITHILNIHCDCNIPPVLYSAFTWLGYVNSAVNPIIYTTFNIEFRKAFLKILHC
#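 PathHunter beta-arrestin assay in DiscoveRx D2 cells. Compounds were added with an EC20 of dopamine (50 nM final) for 90 min at 37 deg C. Luminescence was read 1 h after detection reagent, with 57 uM dopamine as the EC100 control.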
# gsp antag – antagonists of gsp mutant (McCune-Albright syndrome); gsp-mutant cells, cAMP HTRF, 30 min; control for the full effect not named in the record; Potency, µM (series often up to 76.9 µM), without a hit: at the highest dose activity change, negative = inhibition, most hits filed as inhibitors; 0.4% of 340,000 active; AID 624288; active = falling curve of any shape with a large fitted effect; inconclusive = falling curve, mostly with a smaller effect; inactive = flat or rising curve; cell line not stated here;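 note: intracellular cAMP measured with PDE inhibitor Ro 20-1724 present during compound exposure; potency is the fitted concentration of half-maximal effect; % is set by controls: 0 for no effect and ±100 for the full control effect; nearly all actives have a fitted effect of over 65% in size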
#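 HTRF cAMP measurement after 30 min RT detection following 30 min, 37C compound treatment alongside […] (added as 300 uM solution) in G418-selected cells seeded at 2000/well and grown 16–24 h.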
# ClpP mod – qHTS Assay for Activators of ClpP; 1.9% of 340,000 active; ATP-dependent Clp protease proteolytic subunit (Bacillus subtilis (strain 168)), P80244; AID 651965, 2013; purified B. subtilis ClpP, FRET peptide cleavage, 20 min; Potency, µM (doses to about 57.5 µM), for the others: top-dose activity change, negative = active; active = well fitted falling curve with a large enough effect; inconclusive = small, poorly fitted or top-dose-only effect; inactive = no such curve, though single readings can be large or run the other way; note: potency is the fitted concentration of half-maximal effect; the source files actives as falling curves though it sought activators and does not explain the sign; nearly all actives have a fitted effect of over 65% in size; many hits overshoot -100%
# Target sequence (P80244 whole entry, looked up): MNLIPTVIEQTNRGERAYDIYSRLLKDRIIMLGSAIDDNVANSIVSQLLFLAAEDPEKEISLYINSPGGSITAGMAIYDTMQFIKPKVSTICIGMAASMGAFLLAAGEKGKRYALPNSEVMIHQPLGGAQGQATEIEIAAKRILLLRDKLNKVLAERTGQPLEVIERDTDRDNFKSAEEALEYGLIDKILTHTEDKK
#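 Buffer: 100 mM Tris/HCl pH8, 100 mM KCl, 0.05% low protease BSA, 2.5% glycerol, 0.01% Tween-20. ClpP 10 microg/mL final; 20 min RT; delta FRET normalized to ADEP and DMSO controls.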
# Menin MLL FP FL – inhibitors of human menin-MLL interaction, wild-type MLL peptide | FP activity change, % at 61.4 µM | 290,000 tested, under 10 active | AID 1766 | Fluorescence polarization, fluorescein-MLL peptide displacement from menin; inconclusive = falling polarisation curve, or a change in total fluorescence; inactive = total fluorescence flat and polarisation flat or rising; no compound was filed as active; the % refers to the polarisation; negative = inhibition;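 note: % of control where 0% means no effect; inhibitors lower the polarisation; unlabelled MLL peptide was the positive control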
# gsp ag – gsp mutant agonism; Potency, µM (top dose mostly 76.9 µM), inactives show at the highest dose activation (cAMP increase), usual class: activators; 0.13% of 340,000 active; gsp mutant cells, cAMP HTRF, 30 min; control for the full effect not named in the record; AID 624287; active = well fitted activation curve with a large enough effect; inconclusive = small, poorly fitted or top-dose-only effect, or another doubt; inactive = no such curve, though single readings can be large or run the other way; cell line not stated here;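 note: phosphodiesterase inhibitor Ro 20-1724 added with compounds to block cAMP breakdown; potency is the fitted concentration of half-maximal effect; nearly all actives have a fitted effect of over 60% in size; about a fifth of the inactives were tested at one dose only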
#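 Cells in DMEM/10% FBS with G418 were pretreated with compounds in DMSO plus […] (300 uM stock) for 30 min at 37C. cAMP was measured by HTRF (cAMP-d2 plus anti-cAMP antibody-K) after 30 min at room temperature.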
# Sfp PPTase inh – inhibitors of Bacillus subtilis Sfp phosphopantetheinyl transferase. Q9F4F7. Biochemical Sfp PPTase activity, qHTS. Potency, µM, for inactives: max response, negative = inhibition, usual class: inhibitors. 3.5% of 310,000 active. AID 1490; active = well fitted inhibition curve with a large enough effect; inconclusive = small, poorly fitted or top-dose-only effect, or another doubt; inactive = no such curve, though single readings can be large or run the other way;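 note: the enzyme is Sfp with the accession as filed and its product quenches rhodamine fluorescence; potency is the fitted concentration of half-maximal effect; 0% = enzyme reaction without inhibitor and -100% = no enzyme wells; top concentration of the series not given in the record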
#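 After 15 min at room temperature with compound, 15 nM Sfp received 5 uM rhodamine-CoA plus 12.5 uM BHQ-2-ybbR (50 mM Hepes pH 7.6, 10 mM MgCl2). Rate came from the fluorescence difference over 30 min, ex 525/em 598 nm.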
# TRPV1 PAM – enhances activation of the human vanilloid receptor TRPV1 | AID 540277 | 0.02% of 320,000 active | potentiation, % at 8.33 µM | TRPV1-expressing cells, Fluo-8 calcium influx, capsaicin EC20 potentiation; host cell line not named in the record; control for the full effect not named in the record | Q8NER1; active means potentiation above 80%; inconclusive means 30% to 80%; inactive means below 30%; note: 0% is about no effect
#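 Fluo-8 calcium influx in TRPV1-expressing cells, kinetic read (ex 480/em 520 nm). Compound added and read 3 min for agonist activity, followed by capsaicin at EC20 final and 2 min further read for enhancement.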
# An asterisk follows results filed as active; ? = inconclusive; . = not tested or not shown; & = joins results of further samples; [ ] = dose if it differs, or a comment.
SMILES,D2 potentiator,gsp antag,ClpP mod,Menin MLL FP FL,gsp ag,Sfp PPTase inh,TRPV1 PAM
COc1ccc(NC(=O)/C=C/c2c(Cl)nc3ccccn23)cc1,-5,?,2.1%,-1.6,?,11%,-9
O=C1CC(c2ccc(Cl)cc2)CC(O)=C1C=NCCO (stereo not given),-6,6%,.,-7.7,6%[15.4 µM],8%,-11
CCOC(=O)c1c(CN2CCN(CCO)CC2)n(-c2ccccc2)c2cc(Br)c(O)cc12,-25,-3%,.,-0.7,?,-8%,3
Cc1ccc(NC(=O)CN(C)C(=O)c2ccc(Cl)c(S(=O)(=O)NCc3ccco3)c2)cc1,-6,-3%,-2.1%,.,-9%,.,.
CC(C)(C)[C@H]1C=C(C(N)=O)O[C@@H](OCCCCO)C1,2,15%,1.8%,4.9,.,16%,-8
CC(=O)c1nn(-c2ccc(Cl)cc2)cc1C(=O)c1ccc(C)cc1,2,-4%,.,.,-32%[15.4 µM],.,.
COc1ccc(NS(=O)(=O)c2cc(NC(=O)COc3ccc(OC)cc3)ccc2N2CCOCC2)cc1,-2,-1%,-3.2%,.,0%,.,.
CCC1CCCCN1CCCNC(=O)C1CC(=O)N(CCc2ccccc2)C1 (stereo not given),-11,10%,-1.9%,-0.7,4%,15%,1
CN(C(=O)CN(c1ccccc1)S(=O)(=O)c1ccc(F)cc1)C1CCS(=O)(=O)C1 (stereo not given),-12,0%,1.5%,5.9,-17%,16%,2
CN1C(=O)/C(=C/c2cccc(Cl)c2)Sc2ccc(C(=O)N3CCOCC3)cc21,-2,-6%,0.5%,2.2,1%,-19%,14
CCCCn1c(N)c(N(CC)C(=O)c2ccccc2C(F)(F)F)c(=O)[nH]c1=O,-4,2%,.,-1.8,12%,7%,7
CCOC(=O)c1ccc2c(c1)nc(SCc1cn3ccsc3n1)n2CC,?,-8%,-0.2%,2.0,-37%,16%,-2
O=C(O)COCC(=O)NC1CCN(Cc2ccccc2)CC1,-3,-3%,.,3.1,-3%,13%,-10
COCCN1C(=O)N[C@@H](c2ccccc2)C(C(=O)OC)=C1C,-8,7%,-1.0%,-0.7&-0.4,.,18%&0%,8
O=C(NNS(=O)(=O)c1ccc(F)cc1)c1cnccn1,-2,18%,1.3%,-0.6,-15%[15.4 µM],?,0
C/C(N)=C(/C#N)C(=O)CSc1cc(Cl)ccc1Cl,17,-2%,0.5%,-0.2,-13%,3%,-8
CCNc1c(C(=O)O)ccc2c1C(=O)c1ccccc1C2=O,4,-16%,-21%,2.8,12%,-2%,-5
COCCNC(=O)CSCc1nc(-c2ccc(SC)cc2)oc1C,4,-14%,25µM*,1.3,?,7%,-2
CCOC(=O)N1CCC(Nc2c(-c3ccccc3)c(=O)c2=O)CC1,-4,-6%,2.6%,3.9,2%,18%,0
O=C(NCCc1ccccc1)C(=O)Nc1ccc([N+](=O)[O-])cc1,-1,0%,0.9%,-1.0,13%,3%,8
Cc1cccc(N2C(=O)CC(Sc3nc(C)cc(C)n3)C2=O)c1 (stereo not given),8,17%,4.5%,2.8,?,-2%,-1
COc1ccc(C(=O)O/N=C(\N)Cc2ccc(Cl)cc2)cc1OC,164*,0%,-3.2%,2.2,0%,6%,-1
O=C(COc1ccccc1)Nc1nnc(-c2ccc3c(c2)CCCC3)o1,-6,-10%,-3.3%,0.2,-70%[inhibitor],11%,8
C/C(=N\Nc1ccccn1)c1ccc(OC(F)F)cc1,12,17%,.,0.0,0%[15.4 µM],14%,2
Cc1ccccc1NC(=O)C1CCCN(S(=O)(=O)c2cnc[nH]2)C1 (stereo not given),-9,5%,0.7%,1.5,-53%[inhibitor],2%,-12
COc1ccc2c(c1)C(=O)C(=O)N2CC1COc2ccccc2O1 (stereo not given),-33,-3%,-0.2%,-2.0,-1%,1%,-1
Cc1cc(NC(=O)c2ccc3c(c2)C(=O)N(C2CCCCC2)C3=O)no1,0,0%,?,-3.2,-1%,11%,17
CCc1nc(SCc2nnc(-c3ccc(C)cc3)o2)c2c(C)c(C)sc2n1,-7,11%,0.8%,.,25%,.,.
COc1ccc(NC(=O)CO/N=C/C(=O)Nc2ccccc2C)c([N+](=O)[O-])c1,1,-8%,-0.4%,.,25%,.,-7
C/C(CC(=O)NCc1ccco1)=N\NC(=O)c1ccc(Cl)cc1Cl,2,9%,.,.,20%,-8%,2
COCCCNCCCCOc1cccc(Br)c1,-37,15%,0.9%,0.4,1%[15.4 µM],6%,-8
CCC(C)NC(=O)c1cc2c(=O)n3ccccc3nc2s1 (stereo not given),-4,10%,3.8%,-12,19%,6%,19
O=C(CSc1nc(-c2ccccc2)cc(=O)[nH]1)N1CCOCC1,-9,-1%,0.7%,4.4,-1%,-8%,-7
Cc1cc(-c2ccccc2)nc(N(C)NC(=O)c2cccc(C(F)(F)F)c2)c1S(C)(=O)=O,-10,-1%,19%,0.2,-9%,16%,3
Cn1c(SCC(=O)N2CCCCC2)nnc1-c1ccc(S(=O)(=O)N2CCOCC2)cc1,-3,0%,?,-0.1,-33%[inhibitor],9%,0
O=C(CS(=O)(=O)c1ccc(C(F)(F)F)cn1)NNC(=O)c1ccccc1,0,13%,.,-1.5,-4%,18%,1
CNc1nc(OC)nc(N2CCOCC2)n1,-17,24%,-0.2%,3.4,0%,30%[activator],-16
CC(=O)c1ccc(NC(=O)c2ccc(NC(=O)CCS(=O)(=O)c3cccs3)cc2)cc1,6,?,?,2.5,-2%[15.4 µM],26%,-10
CCn1nccc1C(=O)Nc1cc(Cl)ccc1Cl,-2,-1%,0.2%,-2.3,-2%,-7%,-10
O=C(Nc1nc(-c2ccccc2)cs1)c1ccc(S(=O)(=O)N2CCc3ccccc32)cc1,-8,-3%,-3.0%,3.7,-39%[inhibitor],1%,1
Cc1[nH]c2ccccc2c1N=Nc1ccc(F)cc1,-6,-8%,.,-8.0,13%[15.4 µM],20%,-1
Cc1ccccc1C(=O)N1CCC(C(=O)NN2C(=O)NC3(CCC(C)CC3)C2=O)CC1 (stereo not given),-1,4%,0.8%,.,?,.,2
Cc1ccc(S(=O)(=O)CCC(=O)OCC(=O)Nc2cc(C)on2)cc1,1,8%,-0.8%,0.7,3%,-15%,2
CC(NC(=O)c1cc2c(=O)n3ccccc3nc2n(CC2CCCO2)c1=N)c1ccccc1 (stereo not given),-11,1%,.,4.9,0%[15.4 µM],17%,7
CCCCn1c(N)c(N(CCC(C)C)C(=O)c2cc(CC)c(C)s2)c(=O)[nH]c1=O,-11,-2%,-2.0%,.,?,.,-6
Cc1ccc(NC(=O)CCC(=O)N/N=C/c2cccs2)cc1,-9,-12%,1.1%,-0.4,10%,-8%,10
Cc1cccc(N=Nc2cnc(N)s2)c1,-4,2%,.,-0.5,-9%[15.4 µM],2%,17
CC(=O)c1cc(-c2ccccc2)n(CC(=O)N2CCC(N3CCCCC3)CC2)c1C,-9,-1%,-19%,4.9,-43%[inhibitor],4%,4
CCN(CC)CCCNC(=O)c1ccccc1NC(=O)C1=CSCCO1,-17,-3%,-9.3%,.,?,19%,0
C=CCOc1cccc(C2C(C(=O)c3ccc(C)o3)=C(O)C(=O)N2CCN2CCOCC2)c1 (stereo not given),-23,.,-18%,.,?,.,.
COc1ccccc1NC(=S)N(CCCN1CCOCC1)Cc1cccs1,-7,-13%,.,-2.0,16%[15.4 µM],6%,13
Cc1cccc(-n2c(N)cc(=O)[nH]c2=S)c1C,-7,4%,-3.8%,0.6,0%,-10%,-15
Cc1ccccc1CCNC(=O)CCn1nc(C)c2c(C)n(-c3ccccc3)nc2c1=O,-12,-19%,-3.8%,.,-34%[inhibitor],11%,1
O=C(c1cc(C2CC2)on1)N1CCN(C(c2ccccc2)c2ccccc2)CC1,-1,1%,-3.7%,0.4,-17%,1%,11
COc1ccc(OC)c2sc(NC(=O)c3ccc(Cl)s3)nc12,-4,2%,1.3%,3.7,-19%,11%,-4
N#Cc1ccsc1NC(=O)CN1CCN(c2ccccc2)CC1,1,8%,.,4.0,?,13%,13
COc1ccc(C(=O)Nc2ccc3nc(N4CCCCC4)cc(C)c3c2)cc1OC,-16,-9%,?,-0.9,6%[15.4 µM],?,-9
N#Cc1cnn2c(-c3cccc([N+](=O)[O-])c3)ccnc12,-3,2%,1.0%,.,-3%,.,23
CCNc1nc(SCC(=O)OC)nc(N(C)C)n1,0,12%,.,2.5,2%[15.4 µM],25%,7
O=C1c2ccccc2N2C(=O)c3ccccc3C2N1Cc1ccco1 (stereo not given),11,4%,-8.5%,-0.9,3%,50µM*,-5
# More compounds follow.
SMILES,D2 potentiator,gsp antag,ClpP mod,Menin MLL FP FL,gsp ag,Sfp PPTase inh,TRPV1 PAM
CC(C)N(C(=O)CSc1nnc(-c2cc3ccccc3cc2O)n1Cc1ccco1)C(C)C,2,-20%,-7.2%,-0.9,-28%,-20%,-1
O=C(/C=C\c1cn(-c2ccccc2)nc1-c1ccc2c(c1)OCCO2)N1CCOCC1,0,?,-20%,4.2,-12%,-17%,-14
O=C1CC(c2ccccc2Br)c2cc3c(cc2N1)CCC3 (stereo not given),.,.,.,-4.9,.,4%,7
COC(=O)c1ccc(Nc2cc(C)nc3nc(C)nn23)cc1,3,-4%,-4.7%,-0.7,-43%[inhibitor],-13%,1
O=[N+]([O-])c1ccc(NC2CCCCC2)nc1,-9,9%,.,.,-44%[inhibitor],.,.
Cc1cc(C)c(NC(=O)CNC(=O)COC(=O)Cc2ccccc2C)c(C)c1,-5,3%,-2.9%,.,1%,.,2
COc1ccc(S(=O)(=O)NCc2ccc(F)cc2)cc1OC,-1,4%,.,-6.5,-8%,16%,-2
COc1ccc(CCC(=O)OCC(=O)c2cccc(OC)c2)cc1,-1,5%,.,-0.3,19%[15.4 µM],5%,-1
Cc1cc(N=Nc2c(O)c3ccccc3[nH]c2=O)ccc1N=Nc1ccc(C(=O)N(C)C)cc1,10,-4%,-5.6%,-10,-45%[inhibitor],-11%,26
CC(NS(=O)(=O)c1cc(C(F)(F)F)ccc1Cl)C(=O)N(C)C1CCN(C)CC1 (stereo not given),-5,17%,-0.6%,.,-27%,.,.
COc1cc2ccccc2cc1C(=O)N1CCN(c2ccccc2O)CC1,-4,-1%,-8.2%,.,9%,.,18
